2A Renilla – Primary qHTS Assay for Foot and Mouth Disease Virus Antivirals against NCGC Sytravon and CBC Compound Libraries: Renilla Luciferase Signal | hit rate 0.32% among 120,000 | HEK cells with a luciferase reporter of 2A StopGo recoding | Potency, µM (titrated, usually from 57.5 µM), inactives show top-dose signal change, negative = less light; active means well fitted falling curve with a large enough effect; inconclusive means small, poorly fitted or top-dose-only effect; inactive means no such curve, though single readings can be large or run the other way; further: nearly all actives have a fitted effect of over 55% in size; overnight with compound
StopGo FLuc – Primary qHTS Assay for Foot and Mouth Disease Virus Antivirals against NCGC Sytravon and CBC Compound Libraries: Firefly Luciferase Signal; HEK cells with a luciferase reporter of 2A StopGo recoding; hit rate 0.23% among 120,000; Potency, µM (highest dose often 57.5 µM), inactives show top-dose signal change, negative = less light; AID 1745856, 2022; active = well fitted falling curve with a large enough effect; inconclusive = small, poorly fitted or top-dose-only effect; inactive = no such curve, though single readings can be large or run the other way; further: nearly all actives have a fitted effect of over 60% in size; overnight with compound
An asterisk follows results filed as active; ? = inconclusive; & = joins results of further samples; [ ] = remark or other dose. On the % scale 0 is the no-effect control and ±100 the full control effect; potency means the concentration at half of the fitted maximal effect. Some of the compounds tested (hit frequency here may not be typical).

Compound,2A Renilla,StopGo FLuc
COc1ccc(-c2nc(-c3cccs3)sc2-c2ccc(OC)cc2)cc1,11.8%,24.6%
COc1ccc2c(c1)c(C(C(=O)O)N1CCN(c3cccc(Cl)c3)CC1)cn2CCC(=O)O (centres undefined),-0.9%,7.2%
NS(=O)(=O)c1ccccc1[N+](=O)[O-],6.5%,0.0%
COc1ccc(-c2noc(CSCC(=O)Nc3cc(OC)c(OC)c(OC)c3)n2)cc1OC,-5.1%,-5.4%
COc1ccc(NC(=O)C(NC(=O)/C=C\c2ccc3c(c2)OCO3)c2ccccc2)cc1 (centres undefined),2.3%,-22.9%
CC1(C)Cc2ccccc2-c2nnc(-c3cccs3)n21,0.8%,13.4%
C=C(C)Cn1c(SCCC)nc2c1c(=O)n(C)c(=O)n2C,-7.4%,-5.3%
COCCCNC(=O)Cn1ccc2c(Cl)cccc21,23.2%,59.8%[activator]
Cc1ccc(C(=O)Nc2ccc3oc(-c4ccccc4C)nc3c2)cc1,11.4%,10.9%
Cc1ccc(NC(=O)C2CCCN(S(=O)(=O)c3ccc4[nH]c(=O)ccc4c3)C2)cc1Cl (centres undefined),-3.4%,-19.3%
CN(C(=O)CSc1nc2ccc(NC(=O)c3cccc(F)c3)cc2s1)c1ccccc1,?,?
COc1cc(C(C)=O)ccc1OS(=O)(=O)c1ccc2c(c1)CCCC2,31.9%[activator],0.0%
O=C(OCc1nnc(-c2ccccc2)o1)c1ccc(Br)o1,-4.5%,-2.1%
O=C(Nc1ccc2c3c(cccc13)CC2)c1ccc(F)cc1,8.9%,155.5%[activator]
Cc1ccc2nc(N(Cc3cccnc3)C(=O)C3COc4ccccc4O3)sc2c1 (centres undefined),-6.0%,14.3%
COc1ccccc1NS(=O)(=O)c1cn(C)c(C)n1,-0.5%,11.7%
CCCN1CCN(c2ncc3c(n2)CCN(Cc2ccc(OC)c(OC)c2OC)C3)CC1,-14.6%,-10.8%
COc1ccc(OC)c(-c2noc(CSc3nnc(C)n3-c3cccc(C)c3)n2)c1,14.6%,15.0%
Cc1cc(Nc2ccc(F)c(F)c2)nc(-c2ccccc2O)n1,44.7%[activator],41.1%[activator]
Cc1cccc(C(=O)Nc2c3c(nn2-c2ccc(Cl)cc2)CS(=O)(=O)C3)c1,99.9%[activator],7.4%

Next section:
Compound,2A Renilla,StopGo FLuc
COc1ccc(NC(=O)CC2C(=O)N(c3ccc(OC)cc3)C(=O)N2C2CCCCC2)cc1 (centres undefined),2.2%,39.9%[activator]
Cc1cc(OCC(=O)N2CCN(C(=O)C3COc4ccccc4O3)CC2)c2c(C)cc(=O)oc2c1 (centres undefined),-15.3%,-12.8%
O=C(COC(=O)c1cc2ccccc2oc1=O)c1ccccc1,0.0%,294.6%[activator]
O=c1[nH]c(C2CCCN(S(=O)(=O)c3ccccc3)C2)nc2c1nnn2Cc1ccccc1Br (centres undefined),54.0%[activator],-15.1%
Cc1ccc(C2CC(=O)N(Cc3ccc(F)cc3)c3c2c(C)nn3-c2nc(C)cc(C)n2)cc1 (centres undefined),41.6%[activator],-14.1%
O=C(Nc1cccc(Cl)c1Cl)C12CC3CC(CC(C3)C1)C2,10.5%,6.0%
O=C(COC(=O)c1cc2c(s1)CCC2)NC(=O)NC1CCCCC1,-14.1%,-8.0%
CCCN(C(=O)c1c(C)oc2ncnc(N3CCOCC3)c12)c1ccc(Cl)c(Cl)c1,-11.3%,-5.3%
c1ccc2c(N3CCC3)nc(-c3ccncc3)nc2c1,-9.0%,-8.1%
CCCCN(CCCC)S(=O)(=O)c1nc(C)c(Cl)c(C)c1C#N,77.5%[activator],-3.2%
CCCCCCCCCCOc1ccc(C(=O)Oc2ccc(Cl)cc2Cc2ccccc2)cc1,1.1%,-2.9%
COc1ccc(Cc2cnc(NC(=O)c3cc(=O)c4cc(C)ccc4o3)s2)cc1,-8.8%,-4.7%
N#Cc1nc(-c2ccc(S(=O)(=O)N3CCCC3)cc2)oc1NCc1ccco1,-1.9%,-6.0%
COCCCNC(=O)c1cc(-c2ccncc2)nc2ccccc12,-2.2%,2.4%
COc1ccccc1CC(=O)N(Cc1nc(-c2ccc(C)cc2)no1)C1CCCCC1,133.7%[activator],-2.7%
COc1ccc(Cl)cc1NC(=O)CSc1nc2c(oc3ccccc32)c(=O)n1Cc1ccco1,-9.3%,-7.7%
COc1cccc(-c2nc(-c3ccc(Br)o3)no2)c1,7.7%,133.0%[activator]
O=C(Nc1cccc(OCc2cc(=O)n3c4c(sc3n2)CCCC4)c1)c1ccc(F)cc1,-12.4%,0.0%
CN(CCCNC(=O)Cn1ncc2c([nH]c3ccccc32)c1=O)Cc1ccccc1,-16.9%,-20.4%
Cc1ccc(OCC(=O)Nc2c(C(=O)c3ccc(Cl)cc3)oc3ccccc23)cc1C,-16.2%,-22.1%

Compounds shown so far containing a cyano group (two):
Compound,2A Renilla,StopGo FLuc
CCCCN(CCCC)S(=O)(=O)c1nc(C)c(Cl)c(C)c1C#N,77.5%[activator],-3.2%
N#Cc1nc(-c2ccc(S(=O)(=O)N3CCCC3)cc2)oc1NCc1ccco1,-1.9%,-6.0%

The listing continues:
Compound,2A Renilla,StopGo FLuc
Cc1ccc(NC(=O)c2cnn3c2NC(c2ccccc2)=CC3c2ccccc2)cc1 (centres undefined),46.8%[activator],-9.4%
CC(C)c1ccc(NC(c2nnc(-c3ccccc3)o2)c2ccc(F)cc2Cl)cc1 (centres undefined),-7.5%,-12.6%
CCOC(=O)c1[nH]c(C)c(C(=O)NC(CC)Cc2ccccc2)c1C (centres undefined),21.5%,-8.6%
CCOC(=O)c1ccc(NC(=O)CS(=O)(=O)Cc2nc(-c3ccccc3C)oc2C)cc1,15.9%,3.9%
CC1CCCN(S(=O)(=O)c2cc3c4c(c2)CC(=O)N4CCC3)C1 (centres undefined),26.6%,-24.1%
CC1(C)CC(=O)C/C(=N/NC(=O)c2ccc(Cl)cc2)C1,1.7%,0.0%
CCc1ccccc1NC(=O)C1CCCN(c2ncnc3onc(-c4ccc(F)cc4)c23)C1 (centres undefined),3.8%,9.3%
O=C(c1ccc2c(c1)OCCO2)N(Cc1cccnc1)c1nc2c(F)cc(F)cc2s1,-14.2%,0.0%
COc1ccc(CNC(=O)CN2C(=O)CCCc3ccccc32)cc1,-10.7%,-12.0%
CCCCN(C)CCNC(=O)Cn1ncc2c3ccccc3n(CCC)c2c1=O,-16.9%,-19.6%
CCOc1ccc(NS(=O)(=O)c2ccc(C(=O)NC3CCN(C(C)C)CC3)cc2)cc1,2.4%,0.2%
Clc1ccc(-c2noc(-c3cccnc3N3CCN(c4ccccc4)CC3)n2)cc1,-5.9%,2.2%
Cc1cccc(Cn2nnc3c(=O)[nH]c(C4CCCN(C(=O)c5ccccc5Cl)C4)nc32)c1 (centres undefined),0.8%&-3.9%,3.2%&-1.5%
CCCCN(C)Cc1c(C)[nH]c2ccc(Br)cc2c1=O,20.5%,16.3%
COc1ccc(S(=O)(=O)Oc2ccc3c(c2)O/C(=C\c2ccc(C)cc2)C3=O)cc1,-0.5%,16.6%
CCc1cccc(OCC(O)Cn2cnc3c2c(=O)n(C)c(=O)n3C)c1 (centres undefined),-28.4%,-28.3%
COc1ccc(N2CCN(C(=O)C3CCN(S(=O)(=O)Cc4ccccc4)CC3)CC2)cc1,-5.0%,-13.2%
Cc1ccsc1CN(C)CC(=O)NC(=O)NCc1ccccc1,-0.9%[1.06 µM],0.0%
Cc1ccc(-n2ncc3c(NCCCN4CCOCC4)ncnc32)cc1C,2.7%,63.1%[activator]
Cc1cccc(N2CCN(c3nc4ccc(C)cc4n4cnnc34)CC2C)c1 (centres undefined),-8.7%,-0.8%

Additional structures follow:
Compound,2A Renilla,StopGo FLuc
Cc1cccc(N2CCN(C(=O)c3cn(C)c4ccc(S(=O)(=O)N(C)C)cc4c3=O)CC2C)c1 (centres undefined),43.8%[activator],-15.2%
Cc1nnc(N2C(=O)c3oc4ccccc4c(=O)c3C2c2ccc(F)cc2)s1 (centres undefined),-6.1%,-6.8%
O=C(N/N=C(/C=C/c1ccccc1)c1ccccc1)c1cccs1,-9.9%,0.0%
Cn1c(=O)c2c(nc(Cl)n2CC(=O)N(Cc2ccccc2F)C2CC2)n(C)c1=O,5.4%,15.2%
COc1cc(CN(CC2CCCO2)C(=O)COc2ccc(Br)cc2)cc(OC)c1OC (centres undefined),9.8%,15.7%
Cc1ccc(S(=O)(=O)CC(=O)c2ccc(F)cc2)cc1,70.2%[activator],2.0%
O=C(OCc1nc2ccccc2o1)c1cc(S(=O)(=O)N2CCCCC2)ccc1Cl,-2.1%,4.5%
Cc1oc2cc(OCc3ccccc3)ccc2c(=O)c1Oc1ccccc1,11.3%,40.9%[activator]
CS(=O)(=O)N1CCC(n2c(C(F)(F)F)nc3cccnc32)CC1,7.8%,-12.4%
O=C(NCc1ccccc1)c1c2c(nc3ccccc13)C(=O)N(C1CCCCC1)C2,-5.8%,0.0%
COc1ccccc1NC(=O)CSc1nc2ccsc2c(=O)n1C,22.4µM*,22.4µM*
O=C(O)CCC(=O)c1ccc(Cl)cc1,24.7%,18.0%
COc1ccc(C(CNC(=O)c2n[nH]c(=O)c3ccccc23)N2CCCC2)cc1 (centres undefined),-10.5%,-2.5%
Cc1ccc(CNCc2c(C(=O)O)n(Cc3ccccc3C)c3cc(C)ccc23)cc1,0.0%,14.4%
COc1ccc(-c2nnc(SCC(=O)Nc3ccc(C)c(Cl)c3)nc2-c2ccc(OC)c(OC)c2)cc1OC,17.9%,11.9%
Brc1cccc(-c2noc(-c3ccco3)n2)c1,19.0%,237.8%[activator]
CCn1c(-c2ccc(Br)cc2)cnc1SC(C)C(N)=O (centres undefined),2.6%,0.0%
O=C(Nc1ccc2[nH]c(=O)[nH]c2c1)c1nn(-c2ccc(F)cc2)c2c1CCCC2,-8.6%,-8.0%
CC(C)Cc1ccc(S(=O)(=O)Nc2cc3c(cc2N2CCOCC2)n(C)c(=O)c(=O)n3C)cc1,201.0%[activator],-3.3%
Cc1cccc(NC(=O)c2ccc(-c3ccccc3)s2)c1,-15.1%,130.1%[activator]

The list goes on:
Compound,2A Renilla,StopGo FLuc
O=C(COC(=O)/C=C/c1ccccc1[N+](=O)[O-])NC12CC3CC(CC(C3)C1)C2,8.5%,13.2%
Cc1oc(-c2ccccc2)nc1CC(=O)Nc1ccccc1-c1ccccc1,-13.3%,-25.1%
Cc1ccc(NC(=O)c2c(C)oc3ncnc(N4CCCCC4)c23)c(C)c1,11.4%,-9.4%
Cc1ccc2c(=O)cc(C(=O)NCC(c3cccs3)N3CCCCCC3)oc2c1C (centres undefined),-7.7%,-0.6%
O=C(c1ccc(Cl)cc1)c1ccc(OCc2cccc3ccccc23)cc1,0.1%,-3.9%
Cc1cc(C)cc(Oc2ccc(C#N)c(C#N)c2)c1,21.2%,0.0%
CCOCCn1c(SCc2ccccc2Cl)nc2c1c(=O)[nH]c(=O)n2C,-4.1%,5.1%
CC(C)NC(=O)Nc1ccc(-c2noc(-c3cccs3)n2)cc1,-4.4%,133.2%[activator]
Cc1cc2n(n1)CCCN2C(=O)Nc1ccc(C)c(Cl)c1,6.7%,0.0%
CC(CCc1ccccc1)NC(=O)CSc1nc2cc(Cl)ccc2s1 (centres undefined),2.0%,4.0%
Cc1ccc(OCC(=O)Nc2nc(-c3ccc(Br)cc3)ns2)cc1,-9.0%,-22.1%
Cn1cc(C(=O)N(CCN2CCOCC2)C2CCCC2)c2ccccc21,-14.7%,-9.7%
CCOCCOc1cccc(N)c1,-3.0%,-5.2%
CC(=O)c1ccc(NS(=O)(=O)c2cnc(N)nc2)cc1,-17.4%,-3.2%
CCCOc1ccc(OC(=O)c2c(-c3ccccc3Cl)noc2C)cc1,35.4%[activator],7.9%
CN(C)C(=O)CCc1ccc(F)cc1,5.3%,26.3%
CCOc1ccccc1-c1noc(CSc2nnc(C)n2-c2cccc(C)c2)n1,14.7%,15.7%
COc1cccc(N2CC(NC(=O)c3cccc(OC)c3OC)CC2=O)c1 (centres undefined),-14.7%,-2.9%
CC(=O)c1cccc(OCc2ccc(C(N)=O)cc2)c1,-13.7%[1.06 µM],0.0%
O=C(Nc1ccc(Br)cc1Cl)c1cc(-c2ccco2)on1,-1.4%,0.0%

Carrying on:
Compound,2A Renilla,StopGo FLuc
COc1ccc(-c2nn(-c3ccccc3)cc2C2NC(=O)NC(C)=C2C(=O)OC(C)C)cc1Cl (centres undefined),-9.2%,3.7%
O=C1CC(c2cc(F)cc(F)c2)c2cc3c(cc2N1)OCO3 (centres undefined),-1.8%,-5.4%
CCOc1ccc(NC(=O)C(CC)CC)c2cccnc12,-5.0%,4.5%
CCC1CN(C(=O)NCc2cccc(OC)c2)c2cc(Cl)ccc2O1 (centres undefined),0.1%,-21.6%
O=C(Nc1ccc(F)c(Cl)c1)C1CCCN(S(=O)(=O)c2cccc3nsnc23)C1 (centres undefined),-12.8%,-16.4%
Cn1c(NCCO)nc2c1c(=O)n(Cc1ccccc1F)c(=O)n2C,3.8%,35.6%[activator]
COCCNC(=O)c1ccc2c(c1)ncn2-c1cc(C)ccc1OC,-5.7%,-13.6%
Cc1ccc(-c2nn(C)c(=O)c3ccccc23)cc1S(=O)(=O)N1CCOCC1,11.8%,8.5%

Screens: PubChem, National Center for Advancing Translational Sciences (NCATS)
